# H5N1 antiviral = antiviral screen in MDCK cells, H5N1 avian flu; cytopathic effect, luminescence, 72 h; stronger effect = higher value; no value below 0 was filed and about half of the inactive calls have no number; reference of the scale not given here; inhibition, % at 50 µM; 0.07% of 96,000 active; AID 740; in the data active = inhibition above about 25%
# Starred values were filed as active, the others as inactive; i = inactive.
SMILES,H5N1 antiviral
O=C(CSc1nnc2ccccn12)NC(=O)NC1CCCC1,0.4
Cc1cc(-c2nnco2)c(C)n1-c1ccc(F)cc1,0.9
O=[N+]([O-])c1cccc(/C(=N/N=C/c2ccccc2Br)C23CN4CN(CN(C4)C2)C3)c1,i
CC(C)CNS(=O)(=O)c1cc(C(=O)N2CCOCC2)c(Cl)cc1Cl,1.0
CC(=O)Nc1ccc(NC(=O)CN2CCN(c3cccc(C(F)(F)F)c3)CC2)cc1,0.3
O=C(CCn1nc(-c2ccccc2)ccc1=O)N1CCN(c2ccccn2)CC1,0.9
Cc1ccc(-c2c(C)sc(=NC(=O)c3ccco3)n2C)cc1,2.1
CN(c1nc2c(c(=O)n(C)c(=O)n2C)n1CC(=O)c1ccccc1)C1CCCCC1,1.8
Cc1ccc2nc(NC(=S)NC(=O)c3cccs3)sc2c1,i
CN(C(=O)c1ccccn1)c1nnc(-c2cccnc2)s1,i
CC(C)(C)n1nnnc1C(c1cccnc1)N1CCN(C2CCCCC2)CC1 (stereo unspecified),i
CCCCN1C(=O)C2C(c3ccc(OC)cc3O)NC(CC(C)C)(C(=O)O)C2C1=O (stereo unspecified),1.0
CCOc1ccccc1NC(=O)CCS(=O)(=O)c1cccc2nonc12,1.3
COC(=O)c1ccccc1NC(=O)N1CSC[C@H]1C(=O)OC,i
CC(=O)Nc1cc(C(C)C)c(O)c(C(C)C)c1,0.3
Cc1nc2sc(C(c3cccs3)N3CCC4(CC3)OCCO4)c(O)n2n1 (stereo unspecified),i
CC(C)CCNC(=O)c1ccc2c(c1)N(Cc1ccccc1)C(=O)CS2=O (stereo unspecified),0.3
CN=C1S/C(=C\c2cc(C)n(-c3ccccc3F)c2C)C(=O)N1C,5.7
O=C(CCSc1ccccc1)NCCSc1ccccn1,i
Cc1ccc2[nH]c(=O)c(CN(Cc3ccco3)C(=O)c3cccs3)cc2c1,i
CCOC(=O)c1ccccc1NC(=O)COC(=O)c1ccc(C)c(S(=O)(=O)N2CCOCC2)c1,0.1
CC(C(=O)NC1CCCC1)N(C(=O)CS(=O)CC(=O)Nc1ccc(F)cc1)c1ccc2c(c1)OCCO2 (stereo unspecified),i
CCc1c(C)c2cc(Cl)c(O)c(CN(C)C)c2oc1=O,i
COC(=O)C(NC(=O)c1ccco1)(Nc1nc(C)cs1)C(F)(F)F (stereo unspecified),i
CCOC(=O)c1ccc(NC(=O)c2cn(-c3ccccc3)nc2-c2ccncc2)cc1,i

# (more compounds)
SMILES,H5N1 antiviral
CCOc1ncccc1C(=O)NCC1COc2ccccc2O1 (stereo unspecified),2.4
COC(=O)c1ccccc1NC(=O)CN(C1CCCCC1)S(C)(=O)=O,0.6
COC(=O)CNC(=O)CNC(=O)Nc1ccccc1,0.3
CCOCCCn1c(SCC(=O)NC(C)C)nc2ccccc2c1=O,i
c1ccc2c(c1)oc1c(N3CCN(Cc4ccc5c(c4)OCO5)CC3)ncnc12,0.4
CSc1ccccc1C(=O)Nc1ccc(C)c(C)c1,i
CCN(CC)S(=O)(=O)c1cccc(-c2nnc(SCCCC(=O)c3ccccc3)o2)c1,0.7
CCOC(=O)C1C(=O)OC(C)(C)C1C(C)C(=O)c1ccc(OC)cc1 (stereo unspecified),0.2
COc1ccccc1-n1c(SCC(=O)Nc2ccc3c(c2)OCO3)nc2c(c1=O)SCC2,0.8
O=[N+]([O-])/C(=C\Nc1ccccc1)S(=O)(=O)c1ccccc1,i
CCOc1ccc(N(CC(=O)N/N=C/c2cc([N+](=O)[O-])ccc2Cl)S(C)(=O)=O)cc1,i
O=C1/C(=C/c2ccccc2)CSc2sccc21,0.5
O=[N+]([O-])c1ccccc1OCCCCN1CCCCC1,0.6
Cc1cc(NC(=O)COc2ccc3oc4ccccc4c3c2)no1,i
O=C(Nc1ncnc2c1ncn2C1OC(COC(=O)c2ccccc2)C(F)C1O)c1ccccc1 (stereo unspecified),2.1
O=c1cc(N2CCC3(CC2)OCCO3)[nH]c(=O)n1-c1ccc(Cl)cc1,i
COc1ccccc1NS(=O)(=O)c1ccc(NC(=O)c2nc3nc(C)cc(C(F)F)n3n2)cc1,0.1
Clc1ccc(CN(Cc2ccccc2)C(c2cccs2)c2nnnn2C2CCCC2)cc1 (stereo unspecified),0.1
O=C(/C=C/c1ccc(Cl)cc1)NCCN1CCOCC1,0.8
CO/N=C/NC(=O)NOCc1ncc(C(F)(F)F)cc1Cl,0.3
Cc1ccc(S(=O)(=O)NNC(=S)Nc2ccccc2)cc1,0.6
COc1ccc(-n2c(C)cc(C(=O)COc3ccc(-n4cnnn4)cc3)c2C)cc1,0.3
O=C1c2ccccc2C(=O)N1CCCCSc1nnc(-c2ccc(OC(F)F)cc2)o1,0.1
O=[N+]([O-])c1ccc(-c2ccc(/C=N/c3c(-c4ccco4)nc4ccccn34)o2)cc1,0.5
CCOC(=O)c1c(C)[nH]c(C)c1C(=O)COc1ccc(NC(=O)c2ccco2)cc1,i

# Another view of 5 compounds above:
Structure	H5N1 antiviral
O=C1c2ccccc2C(=O)N1CCCCSc1nnc(-c2ccc(OC(F)F)cc2)o1	0.1
COc1ccccc1-n1c(SCC(=O)Nc2ccc3c(c2)OCO3)nc2c(c1=O)SCC2	0.8
O=C(Nc1ncnc2c1ncn2C1OC(COC(=O)c2ccccc2)C(F)C1O)c1ccccc1 (stereo unspecified)	2.1
Cc1ccc(S(=O)(=O)NNC(=S)Nc2ccccc2)cc1	0.6
O=C(/C=C/c1ccc(Cl)cc1)NCCN1CCOCC1	0.8

# Next part:
SMILES,H5N1 antiviral
Cc1ccc2nc(CSc3nnc(-c4ccco4)o3)cc(=O)n2c1,2.0
O=C(CN1CCN(Cc2ccccc2F)C1=O)NCCc1ccc(Cl)cc1,0.4
Cc1cc(C(=O)CN2C(=O)NC(Cc3c[nH]c4ccccc34)C2=O)c(C)n1C (stereo unspecified),0.1
COc1ccc(N2CCN(CCCNC(=O)CCCn3c(=O)[nH]c4ccsc4c3=O)CC2)cc1,0.4
N#CN=C(N)c1ccccc1,i
Cc1cc(C)c(C#N)c(SCC(=O)N2CCN(Cc3ccccc3)CC2)n1,1.7
CC1CCN(C(=O)CSc2nnc(-c3ccco3)o2)CC1,2.7
CCOc1ccc(N2C(=O)CCC2=O)cc1,i
CCCOc1ccc(C(O)C(CN2CCOCC2)c2ccccc2)cc1 (stereo unspecified),4.5
C=CCN1C(=O)C(Cc2ccc(C)cc2)S/C1=N/N=C/c1ccco1 (stereo unspecified),3.0
C=C(C)COc1ccc(-c2[nH]ncc2-c2ccccc2)c(O)c1,i
CC1(C)CC(=O)C2=C(C1)OC(N)=C(C#N)C2c1cccc(OC(=O)c2ccco2)c1 (stereo unspecified),i
CCOC(=O)/C(=C\c1ccc([N+](=O)[O-])o1)NC(=O)c1ccccc1,2.5
CCc1cc(=O)oc2c(C)c(O)c(CN(C)C)cc12,0.3
Cc1ccccc1N1C(=O)CC(=O)NC1=O,1.4
O=C(N[C@@H](Cc1ccccc1)C(=O)NC1CCCCCC1)c1ccco1,2.1
CC(C)(C)c1nc2ccccc2c2nnc(SCC(=O)Nc3nccs3)n12,i
CCN(CC)S(=O)(=O)c1cccc(-c2nnc(SCCOc3ccccc3)o2)c1,1.5
O=C1OCC(c2ccccc2)=C1c1ccc(S(=O)(=O)N2CCOCC2)s1,2.4
N#Cc1nc(-c2ccco2)oc1NCCCN1CCOCC1,2.0
Cc1ccc(/C(C#N)=C\c2cn(C)c3ccccc23)cc1,i
CN1C(=O)c2cccc(NC(=O)CCc3ccccc3)c2C1=O,1.6
COc1ccc(CNC(=O)c2nnn(Cc3ccc(OC)cc3)c2N)cc1,i
O=c1nc2s/c(=C\c3ccco3)c(=O)n2nc1Cc1ccccc1,1.5
CCOC(=O)Nc1ccc(C(=O)NCC2CCCO2)cc1 (stereo unspecified),i

# Brought forward from above: 7 compounds, then new ones.
SMILES,H5N1 antiviral
O=C1OCC(c2ccccc2)=C1c1ccc(S(=O)(=O)N2CCOCC2)s1,2.4
N#Cc1nc(-c2ccco2)oc1NCCCN1CCOCC1,2.0
Cc1ccc(/C(C#N)=C\c2cn(C)c3ccccc23)cc1,i
CN1C(=O)c2cccc(NC(=O)CCc3ccccc3)c2C1=O,1.6
COc1ccc(CNC(=O)c2nnn(Cc3ccc(OC)cc3)c2N)cc1,i
O=c1nc2s/c(=C\c3ccco3)c(=O)n2nc1Cc1ccccc1,1.5
CCOC(=O)Nc1ccc(C(=O)NCC2CCCO2)cc1 (stereo unspecified),i
O=C(NCCC(c1ccccc1)c1ccccc1)c1ccc(Br)o1,i
COc1ccc(Nc2nc(=O)[nH]nc2C)cc1,i
COc1ccc(-c2cc(C(=O)NCCN3CCOCC3)c3ccccc3n2)cc1,i
Cc1ccc(NC(=S)N2CCOCC2)c(C)c1,0.0
CSc1ccccc1NS(=O)(=O)c1ccccc1,i
CN(Cc1ccccc1)C(=O)CN(C1CCCCC1)S(C)(=O)=O,0.2
Cc1cc(Cl)ccc1OCC(=O)Nc1nc(-c2cccs2)cs1,i
Cc1nc2sc(C(c3cccs3)N3CCOCC3)c(O)n2n1 (stereo unspecified),i
Cc1nn(C)c(C)c1S(=O)(=O)N1CCCC(C(=O)NCCc2ccc(Cl)cc2)C1 (stereo unspecified),i
COc1ccc(C)cc1NC(=O)COCC(=O)O,i
CCOC(=O)C1=C(C)OC(N)=C(C(=O)OCC)C12C(=O)Nc1ccc(Br)cc12 (stereo unspecified),i
COc1ccc(C2(NC(C)=O)CCN(C(=O)c3ccco3)CC2)cc1,0.5
CC(=O)Nc1ccc(NS(=O)(=O)Cc2ccccc2)cc1,0.8
CC1CC2(C)Oc3ccccc3C3OCC1(CO)C(C)C32 (stereo unspecified),1.1
O=C(CSc1ncn[nH]1)Nc1ccc(Cl)c(Cl)c1,0.7
NS(=O)(=O)c1ccc(NCc2ccccc2OCc2ccccc2F)cc1,0.4
Cc1cc(Oc2ccccc2)nc(-c2ccccc2)n1,i
COC(=O)c1c(C(=O)OC)c(-c2ccccc2)n2c1CS(=O)(=O)C2,0.2
COc1cccc(NS(=O)(=O)c2ccc(OC)c(OC)c2)c1,0.6
Cc1c(NC(=O)c2cnn3c(C(F)(F)F)cc(-c4ccco4)nc23)c(=O)n(-c2ccccc2)n1C,1.1
Cc1ccccc1NC(=O)c1cnc(Nc2nc3ccccc3s2)nc1C,i
COC(=O)c1c(NC(C)=O)sc(Cc2ccccc2)c1C,0.2
CN1C(=O)SC(Nc2ccccc2C(=O)O)C1=O (stereo unspecified),i
Cc1cc(-n2c(C)cc(C(=O)CSc3nnc4sc5ccccc5n34)c2C)no1,2.2
CCCCCOC(=O)C1=C(C)N(C)C(=O)NC1c1cc(Br)c(O)c(OC)c1 (stereo unspecified),0.9

# The list goes on, overlapping the part above by 4 compounds.
SMILES,H5N1 antiviral
COC(=O)c1c(NC(C)=O)sc(Cc2ccccc2)c1C,0.2
CN1C(=O)SC(Nc2ccccc2C(=O)O)C1=O (stereo unspecified),i
Cc1cc(-n2c(C)cc(C(=O)CSc3nnc4sc5ccccc5n34)c2C)no1,2.2
CCCCCOC(=O)C1=C(C)N(C)C(=O)NC1c1cc(Br)c(O)c(OC)c1 (stereo unspecified),0.9
CCSc1nc(=S)n(CC)c(C)c1C(C)=O,0.5
Cc1cc(C(F)(F)F)nc(SCC(=O)Nc2cc(C)on2)n1,i
Cc1ccc(NC(=O)NC2CCCCC2)cc1Cl,i
CS(=O)(=O)N1CCc2cc(-c3csc(NCC4CCCO4)n3)ccc21 (stereo unspecified),0.3
COC(=O)c1ccc(NCC(=O)c2ccccc2)cc1,i
CC(=O)NC1(c2cccc(F)c2)CCN(C(=O)Nc2ccc(C#N)cc2)CC1,i
COc1ccc(Cl)cc1NC(=O)C(C)Sc1nncn1C (stereo unspecified),0.0
COc1ccc(C(=O)N(C(C)C)C(C)C)c(OC)c1,i
Cc1cc(NC(=O)CSc2nnc(C3CC3)n2N)no1,0.4
c1ccc2cc(-c3csnn3)ccc2c1,i
Cc1ccccc1CSc1ncc(C#N)c(N)n1,i
N#Cc1ccccc1Sc1ccccc1C(=O)Nc1ccc(Br)cc1,0.5
COC(=O)CSc1nc(N)c(C#N)c(-c2ccco2)c1C#N,6.9
CCOc1cnc(-c2ccc(Cl)cc2)o1,i
CCOC(=O)/C(C#N)=C1/C=CN(C)C=N1,0.7
CCCCCCCCC[n+]1cccc2c3ccccc3ccc21,0.8
CCN(CCC(=O)O)c1ccccc1,0.1
Cc1nc2c(c3c1[nH]c1ccccc13)C(=O)CC(C)(C)C2,i
COC(=O)c1cccc(S(=O)(=O)N(Cc2ccco2)Cc2cc3cc(OC)ccc3[nH]c2=O)c1,i
COC(=O)c1ccccc1NS(=O)(=O)c1ccc(O)c(C(=O)O)c1,i
CC(C)c1nnc(NC(=O)C2CCCN2S(=O)(=O)c2ccc(Cl)cc2)s1 (stereo unspecified),1.4
N#C/C(C(=O)N1CCOCC1)=C1/SC(Cc2ccccc2)C(=O)N1c1ccccc1 (stereo unspecified),0.6
COc1ccc(-n2c(=S)[nH]c3ccccc32)cc1,0.3
CCCCCCOC(=O)Cc1c(C)nc(-c2ccccc2)[nH]c1=O,0.8
CCOC(=O)C(C)Oc1ccc2c(CC)cc(=O)oc2c1C (stereo unspecified),2.2

# (next part)
SMILES,H5N1 antiviral
Cc1ccc(C)c(OCc2nnc(NC(=O)c3ccco3)s2)c1,i
Cc1oc2c(c1C(=O)Nc1cccc3ccccc13)CCCC2,i
COc1cc2[nH]c3c(N4CCC(C(N)=O)CC4)ncnc3c2cc1OC,0.1
CCCn1c(SCC(=O)NC(C)C23CC4CC(CC(C4)C2)C3)n[nH]c1=O (stereo unspecified),i
CCOC(=S)N/C(=N\S(=O)(=O)c1ccccc1)c1ccccc1,3.9
Cn1c(=O)c2ncn(CC(=O)NC3CCCCCC3)c2n(C)c1=O,1.6
CCCNC(=O)c1c(N)n(-c2cccc(OC)c2)c2nc3ccccc3nc12,i
COc1cccc(N2C(=O)C3CCCN3C2c2ccc(N(C)C)cc2)c1 (stereo unspecified),0.1
O=C(Cc1ccccc1)NC(NC(=S)Nc1cc(Cl)ccc1Cl)C(Cl)(Cl)Cl (stereo unspecified),i
CC1(C)CC(=O)C2=C(C1)OC(N)=C(C#N)C2Cc1ccccc1 (stereo unspecified),i

# Source: PubChem

# A portion of the library. The share of hits here may be higher or lower than overall.
